PrP UTR inh = inhibition of PrP 5' UTR reporter expression | cell-based PrP 5' UTR mRNA reporter, plate reader | inhibition, % (concentration not given with the values) | 340,000 tested, 0.35% active;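 active = every replicate at 50% or more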;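 also: 0 = median of the neutral control wells; tested in H4 reporter cells; numbers are from one replicate; inactives centre near -14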
Bead autofluor = flagged as autofluorescent in microsphere protease counterscreen; 360,000 tested, 3.1% active; fluorescence intensity (concentration not given with the values); compound autofluorescence counterscreen, microsphere flow cytometry; active compounds read high;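 active = at least 3 SD above the mean of all compounds, about 16000 in these data; inconclusive = too few beads counted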;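 also: 100 nL of 1 mM stock went into each well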
Sa ugtP lethal = growth inhibition of ugtP-null S. aureus, primary screen, RN4220 ugtP deletion, OD600. 16 h; some inactives read as strong as hits. growth inhibition, % (test concentration not listed). 330,000 tested, 0.54% active;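 active = z-score under -3 and OD600 up to 0.15 on both plates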;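 also: plate controls were untreated wells for no effect and antibiotic for full effect; wells of about 80 µL received 100 nL stock; the first replicate is given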
RN4220 kill = growth inhibition of S. aureus RN4220, primary screen, OD600 | 16 h | inhibition, % (no concentration beside the values) | 330,000 tested, 0.33% active | AID 1259311, 2017;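 active = z-score of -3 or lower and OD600 up to 0.18 on both plates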;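 also: plate controls were untreated cells for no effect and reference antibiotic for full effect; stock transfer was 100 nL into about 80 µL; one replicate is shown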
BJeLR lethal = MLPCN primary cell-based screen for lethality selective to Ras in HRASV12 cells | BJeLR (HRASV12) viability, CellTiter-Glo ATP luminescence, 48 h; reference of the scale not given here | inhibition, % (concentration not given with the values) | 300,000 tested, 0.17% active | AID 1554, 2009;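 active = replicate mean above 50%; inconclusive = above 50% but judged a plate artefact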;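 also: 50 nL library stock added to about 25 µL; numbers are from one replicate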
Mtb hypoxia inh = PubChem AID 1159583. M. tuberculosis hypoxia-regulated fluorescent reporter, fluorescence. fluorescence inhibition, % (no concentration beside the values). 300,000 tested, 0.1% active;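 active = 35 to 45% if threefold the growth effect, above 45% if 1.5-fold the growth effect; inactive = the rest, general growth blockers included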;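 also: wells of about 50 µL received 100 nL stock; 0% = vehicle wells and 100% = reference inhibitor wells; whole bacteria with a GFP reporter of the hypoxia response; strong numbers were not always called active; many hits fall short of the cut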
Mtb hypoxia inh growth = recorded beside Mtb hypoxia inh, whose call it bears; growth inhibition, %; measured here: M. tuberculosis growth (absorbance);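 0% = vehicle and 100% = reference antibiotic; read after six days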
An asterisk follows results filed as active; ? = inconclusive; . = not tested or not shown.

SMILES	PrP UTR inh	Bead autofluor	Sa ugtP lethal	RN4220 kill	BJeLR lethal	Mtb hypoxia inh	Mtb hypoxia inh growth
COc1ccc(OC)c(NC(=O)CCC(=O)Nc2nnc(C(F)(F)F)s2)c1	-14	4501	0	0.2	-1	6	8
COc1ccccc1Oc1ccc(N2CC(C(=O)OCC(=O)c3ccccc3)CC2=O)cc1 (configuration not stated)	-14	5472	7	0.2	-3	7	-1
CC1CCCC(NC(=O)COC(=O)COc2ccc(Cl)cc2)C1C (configuration not stated)	-16	4488	-5	-4.6	5	-7	1
O=C1CN(C(=O)CSc2nc(-c3ccccc3)cs2)c2ccccc2N1	-29	2567	20	5.7	-2	12	8
Cc1ccc(S(=O)(=O)/C(C#N)=C/c2c(N3CCOCC3)nc3ccccn3c2=O)cc1	-10	?	1	-0.1	-6	9	6
C=CCOc1ccccc1CNc1ccc2c(c1)OCCO2	49	4796	2	5.3	6	-2	12
CC(=O)Nc1ccc(-c2csc(NC(=O)C3CSC4(C)CCC(=O)N34)n2)cc1 (configuration not stated)	-18	?	-5	3.5	4	-8	5
CCCN1C(=O)COc2ccc(C(=O)c3ccccc3C(=O)O)cc21	-8	3465	0	-0.6	-1	14	5
Cc1ccc(-c2cc(C(F)F)n3ncc(C(=O)Nc4c(C)nn(Cc5c(Cl)cccc5Cl)c4C)c3n2)cc1	-38	4489	-2	2.7	-1	.	.
Cc1c(NC(=O)COC(=O)/C=C/c2cccc(Cl)c2)c(=O)n(-c2ccccc2)n1C	-8	3723	8	3.8	.	0	-3
CCc1ccccc1NC(=O)c1nnn(CC(=O)Nc2ccccc2C)c1N	-3	5065	0	5.9	-5	11	9
COc1ccc(/C=C\c2onc(C)c2S(=O)(=O)N2CCC(C(=O)NCCC(C)C)CC2)cc1	-8	6212	.	.	-5	.	.
Cc1nn(C(=O)CN2C(=O)c3ccccc3C2=O)c(C)c1Br	-6	3302	5	-1.1	5	9	6
CC(=O)Nc1ccc(S(=O)(=O)NC(C)CCc2ccccc2)cc1 (configuration not stated)	-20	4407	8	3.2	-4	10	-4
N#Cc1ccsc1NC(=O)COC(=O)CCCSc1nc2ccccc2s1	-8	3294	8	13	6	.	.
COc1cc(Cl)c(C)cc1NC(=O)CCNC(=O)c1ccco1	-18	4027	0	-0.1	2	12	-1
Cc1ccc(C(=O)NNC(=O)Cc2ccccc2)cc1	-24	?	3	1.4	-7	5	2
COc1ccc2[nH]c3c(c2c1)CCN1C(=O)N([C@@H](C)C(=O)NCCc2ccc(F)cc2)C(=O)[C@]31C	-28	4003	-1	-2.4	-4	.	.
FC(F)(F)c1cc(-c2ccccc2)nc(NCc2cccs2)n1	-3	2403	-3	-12	-17	-3	4
Cc1ccc([N+](=O)[O-])c(-c2n[nH]c(=S)n2-c2cccc(Cl)c2)c1	-13	3774	3	2.7	-3	2	-2
CCOC(=O)c1cnc(SCC(=O)N2CCN(c3ccccc3)CC2)nc1N	-7	3596	1	3.3	-5	.	.
Cc1c(C#N)c(O)[nH]c(=O)c1N=Nc1ccc(Cl)c(C(=O)O)c1	-12	3558	18	4.6	-5	3	12
CC(=O)C1=C(C)NC(SCC(=O)c2ccc(Cl)cc2)=C(C#N)C1c1ccco1 (configuration not stated)	-29	7037	50	3.4	2	3	1
COc1ccccc1CC(=O)NC1CC(C)(C)NC(C)(C)C1	-14	5299	0	3.5	6	2	4
COc1ccc(-c2c(-c3cc(OC)cc(OC)c3)n(C)c3ccc(-c4ccc5cc[nH]c5c4)cc23)cc1	-19	3168	-4	-0.3	.	3	5
(list continues)
SMILES	PrP UTR inh	Bead autofluor	Sa ugtP lethal	RN4220 kill	BJeLR lethal	Mtb hypoxia inh	Mtb hypoxia inh growth
Cc1cc2ccccc2n1CCNC(=O)c1ccccc1	-13	1420	14	-2.2	-6	.	.
CC(C)(C)C(=O)NC(=S)NNC(=O)c1ccncc1	-1	2728	-2	19	-10	0	-10
COc1cc([N+](=O)[O-])ccc1NC(=O)CN1CCOCC1	-4	3319	-1	3.5	7	-8	13
COC(C(=O)Nc1ccnn1C1CCN(Cc2ccc(Cl)s2)CC1)c1ccccc1 (configuration not stated)	-14	5371	-1	4.5	4	3	6
O/N=C/c1cccnc1Sc1ccccc1	-10	3614	.	.	-4	.	.
Cc1ccc(OCC(O)CN2CCN(c3ccccc3)CC2)cc1 (configuration not stated)	5	3330	13	-0.6	-7	5	-6
CCOc1ccc(CN(C(=O)c2ccco2)C2CCS(=O)(=O)C2)cc1 (configuration not stated)	-10	2365	-7	0.8	2	-1	-7
O=S(=O)(Nc1ccccc1)c1cccc2nsnc12	-22	3667	7	6.7	-13	2	3
CC(=O)Nc1nonc1-c1nc2ccccc2n1N(C(C)=O)C(C)=O	-23	5940	-8	5.8	.	5	2
CC(OC(=O)c1cc(Cl)ccc1[N+](=O)[O-])C(=O)NC(C)c1ccc(F)cc1 (configuration not stated)	-28	1973	4	7.6	8	-7	8
CCNC(=S)N1N=C2c3ccccc3CCC2C1c1ccc(F)cc1 (configuration not stated)	.	.	-2	5.9	-12	3	8
COc1cccc(Nc2nc(N)nc(-c3oc4ccccc4c3C)n2)c1	-77	10361	-13	-2.6	6	10	7
CC(C)(C)c1ccc(NC(=O)COC(=O)c2ccc([N+](=O)[O-])s2)cc1	1	2369	100*	83	.	8	6
Cc1sc2ncn(-c3ccccc3)c(=O)c2c1C	-60	4266	6	5.9	10	11	2
COc1ccccc1CN1CC(C(=O)NCCc2cn[nH]c2)CCC1=O (configuration not stated)	-4	6175	3	-1.8	-4	1	0
Cc1ccc(S(=O)(=O)NNC(=O)c2cccs2)c(C)c1	4	2484	4	2.5	-1	3	-1
O=C1CC(c2cccc(Cl)c2)CC(O)=C1C=NC1CCCC1 (configuration not stated)	-8	10934	-2	6.6	-2	-2	5
CCc1nnc(NS(=O)(=O)c2ccc(NC(=O)COc3ccc4ccccc4c3)cc2)s1	-66	2154	11	5.3	-1	10	5
Cc1[nH]c2ccccc2c1N=Nc1ccccc1F	-25	4624	14	-16	-5	4	11
COc1ccc2[nH]c(=O)c(CN(C(=O)c3ccncc3)C(C)C)cc2c1	-7	2505	2	7.5	-9	5	-1
O=C(Nc1ccc(Cl)cc1)P(=O)(O)c1ccccc1	-6	4156	3	2.8	.	3	12
CCOC(=O)N1CCN(C(=O)COc2cc(=O)n(C)c3ccccc23)CC1	-17	14898	1	-0.8	-1	-2	0
C=C1C2CCC3C(OC(C)=O)[C@@]2(CC(O)[C@@]2(O)C1CC(O)C2(C)C)C[C@@]3(C)O (some centres not stated)	.	.	-1	2.6	.	1	-10
CC(=O)Nc1ccc(C(=O)NNC(=O)C2CC2)cc1	-10	5617	4	2.1	-6	14	10
CN(C)S(=O)(=O)c1ccc(Cl)c(C(=O)NCCNC(=O)c2cc(S(=O)(=O)N(C)C)ccc2Cl)c1	-4	3760	0	2.7	-1	-9	5
(more compounds)
SMILES	PrP UTR inh	Bead autofluor	Sa ugtP lethal	RN4220 kill	BJeLR lethal	Mtb hypoxia inh	Mtb hypoxia inh growth
CCOC(=O)c1cnc(-c2ccccc2)nc1Oc1ccc(C)cc1	-5	4314	10	0.7	1	.	.
COc1ccc(NC(=O)CCn2nc(C)cc2C)cc1	-18	4111	-1	0.7	-2	.	.
CN(c1ccccc1)S(=O)(=O)c1cccc(NC(=O)C2CCCO2)c1 (configuration not stated)	-2	2892	6	3.4	.	10	4
Cc1ccc(Cl)cc1NS(=O)(=O)c1c(C)[nH]c(=O)[nH]c1=O	-22	9385	9	4.5	6	3	1
CC(Oc1cc2oc(=O)c3c(c2cc1Cl)CCC3)C(=O)NCCN1CCOCC1 (configuration not stated)	-1	5163	7	0.2	-2	-3	1
COc1ccc(CNCC(O)(c2ccc(Cl)cc2)c2ccc(Cl)cc2)cc1OC	5	18261*	-21	2.4	.	4	3
Cc1ccc(CNC(=O)c2ccc(N(C)C)cc2)cc1	-14	4491	-3	3.5	-4	3	8
COc1ccc(NC(=O)COC(=O)CNS(=O)(=O)c2ccc(C)cc2)c(OC)c1	-19	2474	5	-0.7	1	-1	-5
CCOC(=O)C1(CCOC)CCN(C(=O)Cc2ccc3ccccc3c2)CC1	-42	3489	4	3.4	-8	3	1
COc1ccc(-c2nn(CCC(=O)O)cc2/C=C/C(=O)O)cc1[N+](=O)[O-]	-13	2072	4	2.7	-10	6	7
CCCCc1c(C)c2ccc(OC)c(/C(C)=N\O)c2oc1=O	-31	2560	.	.	3	.	.
COc1ccc(Oc2coc3cc(OCC(=O)N4CCCCC4)ccc3c2=O)cc1	.	.	1	1.7	6	6	8
Cc1cnc(C(=O)OCc2nc3ccsc3c(=O)[nH]2)cn1	-18	3558	9	6.8	.	12	2
CCOC(=O)C1CCN(C(=O)CCS(=O)(=O)c2ccc3c(c2)CCN3C(C)=O)CC1	27	3978	17	6.6	-4	5	-4
O=C(Nc1ccnc(-c2ccncc2)n1)c1ccccc1Cl	19	4479	7	-0.8	9	17	4
COc1ccc(NS(=O)(=O)c2ccc3oc(SC)nc3c2)cc1	-23	4082	-2	1.6	1	10	0
CC1(C)CC(N(Cc2ccco2)C(=O)Cc2ccccc2)CCO1 (configuration not stated)	-13	2941	-5	1.9	-1	-1	1
COC(=O)C1=C(C)NC2=C(C(=O)C(C(=O)OC)C(c3ccc(OC)cc3)C2)C1c1ccccn1 (configuration not stated)	9	4800	-3	-8.0	-6	-2	3
COC(=O)c1[nH]c2cc(OC)c(OC)cc2c1C=NNc1ccccc1	.	.	-12	1.0	.	4	1
CCn1cc(CNC(=O)CCc2ccc(OC)cc2)cn1	13	2816	2	-6.0	0	3	5
N#C/C(=C\Nc1ccc(F)c(Cl)c1)C(=O)C1CC1	.	.	4	1.2	5	5	5
CCOc1cc(C=NO)ccc1OCc1ccccc1F	.	.	8	7.7	.	-1	13
NC(=O)c1c(NC(=O)Cc2cccs2)sc2c1CCC2	-16	3937	1	4.0	5	.	.
Cn1c(CSCc2ccccc2Cl)nnc1SCC(=O)Nc1nccs1	-14	2713	-2	2.1	-3	.	.
CN(CCOC(=O)c1ccco1)Cc1ccccc1	-14	2101	1	1.4	-6	.	.

Results in PrP UTR inh, for some of the entries so far:
SMILES | PrP UTR inh
COc1ccccc1CC(=O)NC1CC(C)(C)NC(C)(C)C1 | -14
COc1ccc(-c2c(-c3cc(OC)cc(OC)c3)n(C)c3ccc(-c4ccc5cc[nH]c5c4)cc23)cc1 | -19
Cc1cc2ccccc2n1CCNC(=O)c1ccccc1 | -13
CC(C)(C)C(=O)NC(=S)NNC(=O)c1ccncc1 | -1
COc1cc([N+](=O)[O-])ccc1NC(=O)CN1CCOCC1 | -4

The listing picks up; the five compounds before the break are reprinted first.
SMILES	PrP UTR inh	Bead autofluor	Sa ugtP lethal	RN4220 kill	BJeLR lethal	Mtb hypoxia inh	Mtb hypoxia inh growth
N#C/C(=C\Nc1ccc(F)c(Cl)c1)C(=O)C1CC1	.	.	4	1.2	5	5	5
CCOc1cc(C=NO)ccc1OCc1ccccc1F	.	.	8	7.7	.	-1	13
NC(=O)c1c(NC(=O)Cc2cccs2)sc2c1CCC2	-16	3937	1	4.0	5	.	.
Cn1c(CSCc2ccccc2Cl)nnc1SCC(=O)Nc1nccs1	-14	2713	-2	2.1	-3	.	.
CN(CCOC(=O)c1ccco1)Cc1ccccc1	-14	2101	1	1.4	-6	.	.
O=C(CS(=O)(=O)c1ccccc1)NCc1ccc(Cl)cc1	-6	5759	1	2.9	4	2	9
Cc1cc(-c2n[nH]c(=S)n2N=Cc2cccc([N+](=O)[O-])c2)n[nH]1	.	.	11	5.1	.	3	5
O=S(=O)(NC(=NC1CCCCC1)c1ccccc1F)c1ccccc1	-23	6201	1	3.4	3	3	2
CN1CCN(C(=O)c2cnn3c(C(F)F)cc(C4CC4)nc23)CC1	-5	2133	9	-8.6	2	.	.
C=CCn1c(SCC(=O)NCc2ccccc2)nnc1C1CCCCC1	5	3173	0	2.9	4	3	7
COc1ccc(-n2ncc(C(=O)N3CCN(c4ccc(F)cc4)CC3)c2C)cc1	.	3776	8	0.2	11	3	2
CCN1/C(=C/C(C)=O)Sc2ccc(OC)cc21	-18	3702	3	2.4	-13	3	5
CC(Nc1c([N+](=O)[O-])c(=O)oc2ccccc12)c1ccccc1 (configuration not stated)	-12	3346	3	1.3	-4	3	7
C[C@@H](C(=O)N1CCN(C(=O)OC(C)(C)C)CC1)n1cc(CCC(=O)O)nn1	-13	2950	.	.	-5	.	.

Screening results deposited in PubChem BioAssay by several laboratories.
